# Beta apoptosis = inhibitors of cytokine-induced beta cell apoptosis, primary screen, luminescence | AID 435005, 2010 | INS-1E cytokine-induced death, ATP luminescence, 48 h; percent of positive-control rescue, neutral wells zero | protection from apoptosis, % (test concentration not listed) | hit rate 0.8% among 300,000;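 active = all replicates at 75% or more, or half of them and the mean; inconclusive = half reach 75% but not the mean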;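 also: 0% = cytokine-treated negative control wells and 100% = positive control rescue; higher means more ATP so stronger rescue from cytokine killing; wells of about 40 µL received 100 nL stock; the first replicate is given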
# T cruzi repl = inhibitors of intracellular T. cruzi growth, primary screen, luminescence, NIH3T3 host cells | T. cruzi beta-gal in NIH3T3, 90 h | inhibition, % (test concentration not listed) | hit rate 1.4% among 300,000;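 active = mean inhibition across valid replicates above about 55%, limit read from the data; inconclusive = mean below that limit but half or more replicates reach it; inactive = mean below it, under half of replicates reach it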;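 also: signal also drops with host cell toxicity which is not excluded here; 0% = plate median of DMSO wells and 100% = zero luminescence signal; higher percent means less beta-gal luminescence so fewer parasites; stock transfer was 50 nL into about 50 µL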
# Calb FLC = C. albicans growth inhibition with fluconazole, primary screen, CaCi-2 strain, Alamar Blue fluorescence. C. albicans CaCi-2 (fluconazole-resistant clinical isolate) + fluconazole, 48 h. hit rate 0.57% among 300,000. growth inhibition, % (no concentration beside the values);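 active = most replicates above 75%; inconclusive = exactly half above 75%; inactive = most below 75%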;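 also: all wells also contain fluconazole at 8 µg/ml as a sub-toxic cotreatment; 0% = median of DMSO wells and 100% = median of geldanamycin control wells; wells of about 8 µL received 7.5 nL stock; the first replicate is given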
# LANA-H2A inh = blockers of LANA interaction with H2A/H2B – biochemical, FP readout, HTS, primary screen; AID 2629, 2010; hit rate 0.6% among 320,000; cell-free LANA-H2A/H2B peptide, fluorescence polarization; Protein LANA1 (Human herpesvirus 8 type P (isolate GK18)), Q9QR71; inhibition, % (test concentration not listed); in the data active = inhibition mostly above about 10%, no sharp cut-off; inactive = mostly below about 6.7%;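 also: stock transfer was 7.5 nL into about 10 µL; 0% = median of vehicle wells and 100% = median of positive control wells; one replicate is shown; the record names a cut of 25% in any replicate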
# UCH37 inh = inhibitors of human UCH37 deubiquitinase, primary screen, biochemical, Ub-AMC cleavage, fluorescence. Ubiquitin carboxyl-terminal hydrolase isozyme L5 (Homo sapiens), Q9Y5K5. purified proteasome/UCH37. inhibition, % (no concentration beside the values). hit rate 0.33% among 330,000. AID 588478, 2011;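 active = mean of two replicates above 20%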;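 also: 0% = compound-free wells with enzyme and 100% = wells lacking proteasome; stock transfer was 100 nL into about 20 µL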
# Target sequence (Q9Y5K5 whole entry, looked up): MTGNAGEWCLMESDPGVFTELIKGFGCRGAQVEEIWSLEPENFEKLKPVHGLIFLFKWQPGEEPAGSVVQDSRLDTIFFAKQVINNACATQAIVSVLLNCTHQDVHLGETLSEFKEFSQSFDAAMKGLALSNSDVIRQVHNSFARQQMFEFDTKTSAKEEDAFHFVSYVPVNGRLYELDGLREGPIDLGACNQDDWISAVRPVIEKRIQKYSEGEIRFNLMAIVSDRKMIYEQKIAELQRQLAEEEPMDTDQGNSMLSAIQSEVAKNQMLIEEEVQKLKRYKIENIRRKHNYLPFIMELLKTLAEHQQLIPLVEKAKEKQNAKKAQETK
#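 Test system – human UCH37 enzyme supplied as purified proteasome complex · Incubation – 30 min preincubation with enzyme, 25 min cleavage at room temperature · Detection – AMC fluorescence from Ub-AMC cleavage, excitation 355 nm, emission 460 nm · Benchmarks – no-proteasome wells (full inhibition) and compound-free wells (no inhibition)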
# RanGTP-Imp inh = inhibitors of RanGTP-importin-beta interaction, primary screen, biochemical, FRET, CFP-Ran, YFP-importin-beta, homogeneous. hit rate 1.1% among 300,000. inhibition, % (no concentration beside the values). cell-free CFP-Ran/YFP-importin-beta FRET ratio. Ran GTPase (GTP-bound) - importin-beta complex;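 active = most replicates above 15%; inconclusive = exactly half above 15%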;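 also: 0% = DMSO wells and 100% = Ran loaded with GDP instead of GTP; wells of about 40 µL received 100 nL stock; the first replicate is given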
# B2AR ag = beta2AR agonists driving receptor internalization, primary screen, cell-based, FAP fluorogen, flow cytometry. Beta-2 adrenergic receptor (Homo sapiens), P07550. Am2.2-beta2AR cells; reference of the scale not given here. response, % (no concentration beside the values). hit rate 0.43% among 340,000. AID 504454, 2011;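 active = response above a set limit, near 3 SD of response in nonfluorescent compounds, cut at about 42% in these data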;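 also: stock transfer was 100 nL into about 11 µL; a reference agonist was the positive control; negative values mostly stem from fluorescent compounds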
# Target sequence (P07550 whole entry, looked up): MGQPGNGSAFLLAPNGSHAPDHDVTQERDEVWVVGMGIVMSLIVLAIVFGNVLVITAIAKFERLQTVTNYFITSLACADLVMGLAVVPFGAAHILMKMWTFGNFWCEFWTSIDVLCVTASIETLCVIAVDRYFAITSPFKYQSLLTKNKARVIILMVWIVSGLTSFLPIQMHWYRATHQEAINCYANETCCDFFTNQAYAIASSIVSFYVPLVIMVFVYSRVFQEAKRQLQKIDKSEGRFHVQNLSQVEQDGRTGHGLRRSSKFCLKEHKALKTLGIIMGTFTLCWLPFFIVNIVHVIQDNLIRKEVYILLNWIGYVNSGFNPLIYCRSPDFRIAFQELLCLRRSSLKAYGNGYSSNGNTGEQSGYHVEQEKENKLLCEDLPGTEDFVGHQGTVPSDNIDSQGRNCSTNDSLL
# A1 inh = caspase 3/7 activation in MEF A1-2A-BIM cells, primary screen, A1 inhibitor project, cell-based, luminescence, HTS; Caspase-Glo 3/7 luminescence, 3 h; percent of clofoctol response, vehicle zero; caspase activation, % (no concentration beside the values); hit rate 0.066% among 330,000;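 active = over half of replicate activation scores above 10%, or exactly half above 10 with the replicate mean above 10; inconclusive = replicate mean below 10 yet half the replicates above 10; inactive = over half of replicates below 10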;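 also: wells of about 30 µL received 50 nL stock; many hits fall short of the cut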
# * = called active by the depositor; i = inactive; ? = inconclusive; . = not tested or not shown; + = active, no number. Random draw from the library; any-hit rate near 4.3%.
SMILES,Beta apoptosis,T cruzi repl,Calb FLC,LANA-H2A inh,UCH37 inh,RanGTP-Imp inh,B2AR ag,A1 inh
CCOCCCNC(=O)c1cccc(NC(=O)C2=C(C)OCCS2)c1,-6,-12,0,-0.3,3.4,-1.7,-6,0.6
COC(=O)C1=CN(Cc2ccc(C)cc2)C=C(C(=O)OC)C1c1ccc(F)c(F)c1,-6,29,-6,-2.9,-346,?,1,0.6
CCc1cc2c(SCC(=O)Nc3cc(C)on3)ncnc2s1,.,-7,14,1.9,1.8,-2.9,-9,0.8
CCOc1ncccc1C(=O)Nc1cccc(-c2nc3cccnc3s2)c1,4,12,-6,1.6,-11,4.8,33,-1.3
COc1ccc(S(N)(=O)=O)cc1C(=O)OCC(=O)NC(C)(C#N)C1CC1 (stereo not given),-6,.,.,-4.5,3.3,.,-11,-0.2
COc1ccccc1OCc1csc(NC(=O)c2ccco2)n1,0,-9,7,-3.3,-0.2,3.7,-9,0.2
O=C1c2ccccc2C(=O)N1CCSc1ccccc1,-11,1,6,2.7,0.1,-3.1,-4,.
COc1ccc(N(Cc2cc3cccc(C)c3[nH]c2=O)C(=O)C2CCCO2)cc1 (stereo not given),-1,-3,-4,-4.8,-1.8,1.3,4,-0.4
Cc1cc(OC(=O)c2ccc(Cl)cc2)cc(=O)n1C,-16,-9,4,3.9,6.0,4.8,1,1.1
CCN(CC)C(=O)c1[nH]cnc1C(=O)Nc1cccc(Cl)c1,-3,.,.,-0.1,2.8,.,-6,0.4

# Arranged by value in B2AR ag (low to high): 4 of the compounds above.
mol | LANA-H2A inh | UCH37 inh | RanGTP-Imp inh | B2AR ag | A1 inh
CCc1cc2c(SCC(=O)Nc3cc(C)on3)ncnc2s1 | 1.9 | 1.8 | -2.9 | -9 | 0.8
CCN(CC)C(=O)c1[nH]cnc1C(=O)Nc1cccc(Cl)c1 | -0.1 | 2.8 | . | -6 | 0.4
Cc1cc(OC(=O)c2ccc(Cl)cc2)cc(=O)n1C | 3.9 | 6.0 | 4.8 | 1 | 1.1
CCOc1ncccc1C(=O)Nc1cccc(-c2nc3cccnc3s2)c1 | 1.6 | -11 | 4.8 | 33 | -1.3

# Carrying on:
SMILES,Beta apoptosis,T cruzi repl,Calb FLC,LANA-H2A inh,UCH37 inh,RanGTP-Imp inh,B2AR ag,A1 inh
Cc1csc(SCC(=O)Nc2cc([N+](=O)[O-])ccc2F)n1,-3,.,.,-1.9,3.4,.,6,-0.2
O=C(NC1CCCCCC1)c1cc(S(=O)(=O)N2CCOCC2)ccc1F,-5,-15,-1,4.3,1.5,1.4,-2,-1.7
O=C(Nc1ccc(S(=O)(=O)Nc2nccs2)cc1)c1ccc(F)c(S(=O)(=O)N2CCOCC2)c1,-3,-10,14,-13,4.6,-3.6,-1,0.5
COC(=O)c1ccsc1NC(=O)CN1C(=O)CCC1=O,-9,-3,0,-6.2,5.0,-0.7,6,0.7
CCc1nc(N[C@@H](Cc2c[nH]c3ccccc23)C(=O)O)c2oc3ccccc3c2n1,-2,-7,6,-0.1,2.5,0.8,-4,0.7
O=S(=O)(Nc1nc2ccccc2nc1N1CCN(CCO)CC1)c1cc(F)ccc1F,-5,.,.,2.3,-9.5,.,10,0.4
COc1ccc2c(C(=O)CN3CCSCC3)c[nH]c2c1,-12,-13,-5,1.5,2.3,-4.0,17,-0.2
O=C(O)CSCC(=O)Nc1ccc(Cl)cc1C(F)(F)F,3,-20,11,-1.8,5.2,0.4,3,-0.5
CNc1snc(C)c1C(=O)OC(C)C(=O)Nc1ccc(F)cc1 (stereo not given),2,.,.,1.9,0.8,.,-1,-1.5
O=CNC(n1cnc2c(N3CCOCC3)ncnc21)C(Cl)(Cl)Cl (stereo not given),-1,-3,3,3.9,1.9,?,0,0.0
Cc1nn(CC(=O)N(C)C2(C#N)CCCCC2)c(C)c1[N+](=O)[O-],-3,.,.,3.7,2.6,.,0,-0.3
Cc1cc(OCC(=O)c2ccc(C(F)(F)F)cc2)n2cnnc2n1,.,0,-9,-2.3,2.4,-1.6,-5,-0.3
CCOC(=O)CSc1nc(N)c(C#N)c(-c2ccc(OC)cc2)c1C#N,-10,-5,3,-8.3,-6.8,3.1,12,-0.9
COc1ccc2[nH]cc(C(=O)C(=O)N3CCCCC3)c2c1,-8,-9,-3,2.5,3.6,1.9,-7,0.8
CCCN1C(=O)C(Cc2nc3ccccc3c(=O)n2-c2ccccc2)c2ccccc21 (stereo not given),-5,40,-7,-5.4,-1.3,-1.9,-2,1.3
CCOC(=O)COn1c(=O)c(-c2ccco2)[n+]([O-])c2ccccc21,-7,-11,1,1.5,6.4,5.4,-1,-0.4
CC(CC(=O)NNC(=O)c1ccncc1)c1ccccc1 (stereo not given),1,-13,1,-3.4,0.6,5.6,5,-0.8
N#CNC(=Nc1cccc(F)c1)SCc1ccccc1,-1,-20,5,4.4,2.8,-1.2,11,-0.5
CCCCOc1ccc(N2CC(C(=O)NCCc3ccc(OC)c(OC)c3)CC2=O)cc1 (stereo not given),.,10,?,1.8,1.2,6.2,-16,0.6
CCOC(=O)C(C(=O)OCC)C(C[N+](=O)[O-])c1ccccc1 (stereo not given),-6,-13,11,-4.7,0.5,1.0,-3,1.2
O=C(O)Cc1ccc(C(=O)CSc2ccccc2)s1,-5,-3,-1,-3.4,6.0,8.4,-6,-1.6
COc1ccccc1/C=C/CN1CCC(Oc2ccc(C(=O)N3CCCCC3)cc2)CC1,4,26,-1,2.4,0.7,8.1,-2,-0.2
COCCn1c(SCC(=O)N2CCCc3ccccc32)nc2cccnc21,-2,10,1,-0.1,-4.7,2.8,-4,-0.1
CCc1nn(CC(=O)NCCN2CCOCC2)c(=O)c2cc3c(OC)cccc3n12,0,5,1,-1.7,i,-1.3,4,1.9
COc1ccc(CCNC(=O)Cc2cc(OCc3ccccc3)c(OC)cc2[N+](=O)[O-])cc1OC,-21,15,-3,4.9,4.4,1.0,1,-0.2
Cc1cc(=O)[nH]c(SCc2nnc(-c3ccccc3)o2)n1,-4,-12,.,1.1,-2.2,4.9,-3,0.1
Cc1ccc(C)c(-n2ccnc2SCC(=O)c2c(N)n(C3CC3)c(=O)[nH]c2=O)c1,-1,.,.,+,0.9,.,7,0.4
CC(=O)Nc1ccc(S(=O)(=O)Nc2cccc(-n3cnnn3)c2)cc1,-2,-8,-11,1.4,2.2,-3.6,3,?
Cc1nn(-c2ccc(F)cc2F)c2c1-c1nc(N3CCCC3)ncc1CC2,15,22,17,-0.8,-96,-0.6,4,0.2
Cc1ccc(C(=O)/C=C/Nc2cccc([N+](=O)[O-])c2)o1,-2,16,-12,3.8,8.6,-1.8,5,-4.4
CCCOc1cccc(C2C(C(=O)c3ccco3)=C(O)C(=O)N2CCCn2ccnc2)c1 (stereo not given),.,-6,-1,0.0,7.4,0.1,-1,-1.9
Cc1c(/C=N/NC(=O)c2cccnc2)c2ccccn2c1C(=O)c1ccc(F)cc1,3,-7,-7,7.0,.,-0.4,.,-0.2
Cc1ccc(S(=O)(=O)Cn2nnnc2C(CC(C)C)N2CCN(C3CCCC3)CC2)cc1 (stereo not given),-4,-17,-7,-1.1,-0.7,4.7,-2,0.1
Cc1onc(CO)c1C(=O)Nc1nccs1,-3,0,-15,0.5,-1.7,-0.8,-1,0.0
COc1cc(C(=O)N2CCN(C)C(C)C2)ccc1OC1CCN(C(C)=O)CC1 (stereo not given),0,8,11,1.0,1.8,1.0,-2,1.3
O=C(NCc1cccc(F)c1)C1CCC(=O)N(CCc2cccc(F)c2)C1 (stereo not given),-5,-13,-3,-6.7,2.3,0.0,-7,0.4
Cc1ccc(N2CC(O)Cn3c2nc2c3c(=O)n(C)c(=O)n2C)cc1 (stereo not given),-3,4,-6,-0.2,1.1,0.8,-2,0.3
CC(=O)c1ccc(N2CCN(C(=O)Nc3ccc(F)cc3)CC2)cc1,11,-10,-4,-2.1,5.9,-0.7,11,-0.1
Cc1noc(C)c1NC(=O)N(C)C[C@H]1Oc2ccc(NS(=O)(=O)c3cn(C)cn3)cc2C(=O)N([C@H](C)CO)C[C@@H]1C,2,.,.,1.7,3.3,.,.,-0.3
COc1ccc(NC(=O)CN(C)C(=O)c2ccc(N3CCCCC3)c([N+](=O)[O-])c2)cc1,3,8,-5,0.0,1.8,0.5,-6,-0.5

# Some of these compounds in order of length of the SMILES, low to high.
SMILES,Beta apoptosis,T cruzi repl,Calb FLC,LANA-H2A inh,UCH37 inh,RanGTP-Imp inh,B2AR ag,A1 inh
Cc1onc(CO)c1C(=O)Nc1nccs1,-3,0,-15,0.5,-1.7,-0.8,-1,0.0
CC(=O)c1ccc(N2CCN(C(=O)Nc3ccc(F)cc3)CC2)cc1,11,-10,-4,-2.1,5.9,-0.7,11,-0.1
O=C(NCc1cccc(F)c1)C1CCC(=O)N(CCc2cccc(F)c2)C1 (stereo not given),-5,-13,-3,-6.7,2.3,0.0,-7,0.4
Cc1noc(C)c1NC(=O)N(C)C[C@H]1Oc2ccc(NS(=O)(=O)c3cn(C)cn3)cc2C(=O)N([C@H](C)CO)C[C@@H]1C,2,.,.,1.7,3.3,.,.,-0.3

# Later entries:
SMILES,Beta apoptosis,T cruzi repl,Calb FLC,LANA-H2A inh,UCH37 inh,RanGTP-Imp inh,B2AR ag,A1 inh
Cc1ccc(Nc2c([N+](=O)[O-])c(=O)n(C)c3ccccc23)cc1,-6,28,-8,2.6,4.9,-0.8,10,0.0
CCO/C(C)=C1/SC(=S)NC1=O,5,-4,-8,-0.9,12,2.5,-2,-0.4
Cc1cc(C)n2nc(CCCO)nc2n1,-4,-14,12,1.8,4.8,-1.1,1,0.0
Cc1cc(NC(=O)C(C)SCC(=O)N(Cc2ccccc2)c2ccccc2)no1 (stereo not given),1,-4,3,5.5,1.0,-0.1,6,0.7
C[N+](C)(C)CCOc1ccc([N+](=O)[O-])cc1,-1,-4,-10,0.9,0.8,4.7,2,1.4
CCCC1CC(CCc2ccccc2)OS(=O)(=O)N1 (stereo not given),.,-7,-8,-0.6,-0.3,6.3,-3,-0.7
Cc1ccc(NC(=O)c2ccc3c(c2)N(CC(=O)N2CCCCC2)C(=O)C(C)(C)O3)cc1,-4,-1,15,5.6,4.1,-4.6,3,-0.1
NC(=O)c1c(NC(=O)c2cccnc2)sc2c1CCCC2,.,15,?,-5.0,-101,?,0,-0.6
Cc1cc2nc3n(c2cc1C)CC1CC(C(=O)NCc2ccco2)N(C)C31 (stereo not given),-20,2,-6,3.3,2.1,1.6,10,-0.2
COc1ccc(CNC(=O)CN(CC2CCCO2)C(=O)CNS(=O)(=O)c2ccc(F)cc2)cc1 (stereo not given),.,-4,-4,.,-0.1,-3.0,-4,.
COc1cccc(NC(=O)COc2c(F)c(F)c(C(F)(F)F)c(F)c2F)c1,-3,-2,-18,0.9,2.3,1.2,1,0.6

# From PubChem BioAssay
